Six1-Eya2 inh = qHTS Assay for Inhibitors of the Six1/Eya2 Interaction. activity change, % (test concentration not listed). hit rate 0.56% among 360,000. AlphaScreen GST-Six1/His-Eya2 binding, biochemical; active compounds read low; control for the full effect not named in the record. Homeobox protein SIX1 (Homo sapiens) + Protein phosphatase EYA2 (Homo sapiens), …. AID 651725, 2012; in the data active = activity change below about -65%; inconclusive = about -30% to -65%; inactive = above about -30%; note: % is set by controls: 0 for no effect and ±100 for the full control effect
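Homogeneous AlphaScreen proximity assay pairing GST-Six1 with His-tagged Eya2 (added as 5X mix: 250 nM and 500 nM) in 50 mM Tris pH 8.0, 300 mM NaCl, 1 mM TCEP. Glutathione donor and nickel acceptor beads; 1 h, 37 °C, dark.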
TRPML1 blocker = qHTS for Inhibitors of the Human Mucolipin Transient Receptor Potential 1 (TRPML1). Mucolipin-1 (Homo sapiens), Q9GZU1. TRPML1-inducible cells, Ca2+ dye fluorescence, FDSS; active compounds read low; inhibition of EC80 agonist-evoked calcium signal. activity change, negative = inhibition, % (concentration not given with the values). hit rate 0.02% among 390,000; in the data active means activity change below about -50%; inconclusive means about -30% to -50%; inactive means above about -30%;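 note: stimulus is agonist 54-4 at its EC80 concentration; % is set by controls: 0 for no effect and ±100 for the full control effect; the text of the record puts the active cut at -80%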
Target sequence (Q9GZU1 whole entry, looked up): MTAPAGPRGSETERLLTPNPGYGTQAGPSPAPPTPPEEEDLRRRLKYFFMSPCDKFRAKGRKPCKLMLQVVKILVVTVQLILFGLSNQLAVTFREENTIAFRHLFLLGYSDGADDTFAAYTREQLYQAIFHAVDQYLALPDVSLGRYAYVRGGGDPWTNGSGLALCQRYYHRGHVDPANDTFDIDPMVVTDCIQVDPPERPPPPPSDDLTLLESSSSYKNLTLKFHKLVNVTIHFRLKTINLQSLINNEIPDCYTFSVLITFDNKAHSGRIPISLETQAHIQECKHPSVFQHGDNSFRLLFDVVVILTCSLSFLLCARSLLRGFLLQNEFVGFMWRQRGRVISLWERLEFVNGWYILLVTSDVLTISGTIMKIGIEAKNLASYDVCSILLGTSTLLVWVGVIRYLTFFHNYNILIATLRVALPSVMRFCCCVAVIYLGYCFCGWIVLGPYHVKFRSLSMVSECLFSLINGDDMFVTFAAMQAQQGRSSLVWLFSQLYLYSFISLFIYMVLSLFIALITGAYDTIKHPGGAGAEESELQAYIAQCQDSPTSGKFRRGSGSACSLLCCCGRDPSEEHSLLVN
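TRPML1-DL cells, Tet-induced overnight (~16 h, 37 °C) at 1,500 cells/well, were loaded with Ca8 no-wash dye plus quencher for 45-90 min at room temperature. Compounds were pinned during FDSS kinetic reading; agonist 54-4 at EC80 (4 uM final) then added.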
PINK1 modulator = A Quantitative High throughput Screen to Identify Chemical Modulators of PINK1 Expression. AID 624263, 2012. Potency, µM (top dose mostly 76.6 µM), for inactives: at the top dose activation (PINK1 increase), usual class: activators. hit rate 0.2% among 410,000. PINK1 immunofluorescence, high-content cytometry, 24 h; active = well fitted activation curve with a large enough effect; inconclusive = small, poorly fitted or top-dose-only effect; inactive = flat fitted curve, though single readings scatter; cell line not stated here;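 note: potency is the fitted concentration of half-maximal effect; % of control where 0% means no effect; nearly all actives have a fitted effect of over 65% in size; a mitochondrial uncoupler was the plate control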
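Cells are seeded, rested 12 hours, then given compound at five concentrations or DMSO for 24 hours. After fixation, blocking and antibody staining, PINK1 amount and mitochondrial localization are scored; CCCP serves as control.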
D2 agonist = Beta-Arrestin HTS for Positive Allosteric Modulators of the Human D2 Dopamine Receptor: Agonists; D(2) dopamine receptor (Homo sapiens), P14416; DiscoveRx PathHunter D2 beta-arrestin, luminescence, 90 min; 100% = 57 uM dopamine signal; activation, % (no concentration beside the values); hit rate 0.084% among 360,000; in the data active = activation above about 40%; inconclusive = about 15% to 40%; inactive = below about 15%; note: compound concentration not given in the record; the text of the record calls up to 30% inactive
Target sequence (P14416 whole entry, looked up): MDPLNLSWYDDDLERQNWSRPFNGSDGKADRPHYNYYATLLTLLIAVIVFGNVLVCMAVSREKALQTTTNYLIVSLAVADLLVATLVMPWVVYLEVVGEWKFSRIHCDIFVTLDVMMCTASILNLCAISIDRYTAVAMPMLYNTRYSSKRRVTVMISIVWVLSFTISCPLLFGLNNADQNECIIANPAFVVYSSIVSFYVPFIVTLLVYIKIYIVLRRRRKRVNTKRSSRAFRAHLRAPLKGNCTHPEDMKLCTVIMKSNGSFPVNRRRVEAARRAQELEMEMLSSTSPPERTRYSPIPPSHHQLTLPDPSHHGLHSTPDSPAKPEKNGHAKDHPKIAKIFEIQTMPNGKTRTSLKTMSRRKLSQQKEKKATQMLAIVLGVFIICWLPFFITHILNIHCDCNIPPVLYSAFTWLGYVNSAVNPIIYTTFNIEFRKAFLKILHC
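DiscoveRx PathHunter D2 beta-arrestin cells (2,100/well) attached overnight, then compound-stimulated 90 min at 37 C in HBSS/10 mM HEPES/0.1% Tween-20 buffer; beta-galactosidase complementation read by luminescence after 1 h at ambient temperature. Dopamine 57 uM final (EC100) as control.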
D2 potentiator = Beta-Arrestin HTS for Positive Allosteric Modulators of the Human D2 Dopamine Receptor: Potentiators; AID 624464, 2012; D(2) dopamine receptor (Homo sapiens), P14416; potentiation, % (test concentration not listed); DiscoveRx D2 beta-arrestin cells, luminescence, 90 min; 100% = 57 uM dopamine signal; hit rate 0.23% among 360,000; active = potentiation of 50% or more; inconclusive = 30% to 50%; inactive = 30% or less;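 note: compound concentration not given in the record; tested on top of an EC20 dose of dopamine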
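D2 cells co-treated with compound plus 50 nM dopamine (EC20) for 90 min at 37 deg C to detect potentiation. Beta-arrestin recruitment was read as enzyme-fragment luminescence after 1 h at ambient temperature. Full response was set by 57 uM dopamine.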
TRPML1 ag = qHTS for Agonists of the Human Mucolipin Transient Receptor Potential 1 (TRPML1) | AID 624414, 2012 | Mucolipin-1 (Homo sapiens), Q9GZU1 | activation, % (test concentration not listed) | TRPML1-expressing cells, Ca2+ dye fluorescence, FDSS; host cell line not named in the record; reference of the full effect not given here | hit rate 0.12% among 410,000; in the data active = activation above about 50%; inconclusive = about 30% to 50%; inactive = below about 30%; note: 0% is about no effect; the text of the record puts the active cut at 80%
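Agonist activity was taken from a 110 s kinetic Ca2+ dye read on the FDSS after pinning compounds onto TRPML1-DL cells. The cells were seeded at 1,500/well with Tet inducer, incubated about 16 h, then dye-loaded at room temperature.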
* marks the source's active call; other numbers are inactive results; ? = inconclusive; nt = not tested or not shown; [ ] = remark or other dose.

SMILES	Six1-Eya2 inh	TRPML1 blocker	PINK1 modulator	D2 agonist	D2 potentiator	TRPML1 ag
COc1ccc(-c2cc(C(=O)N/N=C/c3cc(OC)c(OC)cc3OC)c3ccccc3n2)cc1	8	-20	9.8%	-5.3	-6	-0.3
O=C(c1ncn2c1c(=O)[nH]c1ccccc12)N1CCc2ccccc2C1	-4	nt	0.6%	-2.3	nt	nt
O=P(c1ccccc1)(c1ccccc1)C1CCCO1 (stereo unspecified)	-9	-7	-0.6%	-2.3	-1	-0.3
COc1ccc(COC(=O)C2=C(C)NC(=O)NC2c2ccc(O)c(OC)c2)cc1 (stereo unspecified)	-7	32	nt	-1.2	5	0.5
O=C(Nc1ccccc1)C1CC(=O)n2c(nc3ccccc32)N1 (stereo unspecified)	-5	-14	4.7%	3.1	-2	0.5
CC1=C(C(=O)OC2CCCCC2)C(c2cccnc2)n2nnnc2N1 (stereo unspecified)	-6	3	-2.5%	-0.2	-2	-0.4
COc1cc(C(c2nnnn2C2CCCC2)N2CCN(C(=O)c3ccco3)CC2)cc(OC)c1OC (stereo unspecified)	7	18	2.4%	-5.4	-12	-0.7
Cc1[nH]c2ccccc2c1C(=O)C(=O)N1CCN(c2cccc(Cl)c2)CC1	-15	-1	0.5%	4.9	-11	0.5
O=C(Oc1ccc([N+](=O)[O-])cc1)c1cc(-c2ccccc2)nc2ccccc12	7	9	5.5%	-0.4	-12	-0.3
Cc1ccc(SCc2[nH]nc3c2C2(CCSCC2)C(C#N)=C(N)O3)cc1	-5	11	nt	-0.3	-1	-0.2
Cc1ccc2scc(N3CCCCC3)c(=O)c2c1	nt	-24	-0.1%	nt	nt	-0.5
CC1=NN(c2ccccc2)C(=O)/C1=C/C=C/C=C/N(C)C	-8	-4	4.0%	-10	-19	1.6
O=C(COC(=O)c1cc(Br)ccc1O)NNC(=O)c1ccc(Cl)cc1	-2	-5	3.5%	-8.7	-3	-0.7
CCn1c(=O)cc(SCC(=O)NCCc2cccc(C)c2)c2ccccc21	nt	26	0.3%	nt	nt	4.0
CC1CCN(c2nn3c(=O)c(C(=O)NCCCOC(C)C)cnc3s2)CC1	nt	-3	0.6%	nt	nt	-1.0
CCOC(=O)N1CCN(c2c(-c3ccc(C(C)C)cc3)c(=O)c2=O)CC1	0	-5	-3.1%	1.5	-9	3.2
Cc1nn(-c2ccccc2)c2c1C(c1ccco1)C(C#N)=C(N)O2 (stereo unspecified)	-4	31	1.2%	-2.2	7	-0.1
Cc1nn(C(C)(C)C)c(NC(=O)c2ccccc2)c1C#N	9	-18	2.4%	-5.0	-5	0.8
CCOC(=O)C1=C(C)NC(=O)CC1c1cc2c(cc1[N+](=O)[O-])OCO2 (stereo unspecified)	1	-4	-2.6%	7.1	10	0.3
CCS(=O)(=O)N1CCC(NC(=O)c2ccco2)CC1	-2	-6	0.4%	0.4	-6	0.1
COC(=O)c1nnn(-c2cccc(Cl)c2)c1C(=O)OC	-4	9	-0.2%	-3.6	-6	-0.3
COC(=O)C1CCN(CC(=O)Nc2ccccc2Sc2ccccc2)CC1	3	12	2.2%	0.9	-6	0.2
Cc1cccnc1NC(=O)C1CCCN(S(=O)(=O)c2ccc3c(c2)oc(=O)n3C)C1 (stereo unspecified)	-4	34	2.3%	-0.1	-4	-0.6
O=C(Nc1ccc(Br)cc1F)c1sccc1-n1cccc1	-1	14	nt	-1.8	7	3.0
COc1cc(OC)cc(C(=O)Nc2ccc3oc(-c4cccc5c(Br)cccc45)nc3c2)c1	nt	23	-0.9%	nt	nt	-0.2
CCC(=O)Nc1ccc(NC(=O)CSc2nnc(-c3ccco3)n2CC)cc1	-4	-6	2.8%	1.2	-4	0.3
CCOc1cc(C(=O)Nc2cc(C)ccc2OC)ccc1OCC(=O)N1CCCCC1	0	0	3.6%	1.3	-13	1.1
Oc1ccccc1-c1ccn[nH]1	1	4	-0.6%	0.8	7	-0.8
CC(=O)Nc1ccc(S(=O)(=O)NCc2nc(-c3ccccc3Cl)no2)cc1	4	4	-0.5%	0.5	1	-0.1
COc1cc(C2C3=C(COC3=O)Oc3cc4c(cc32)OCO4)cc(OC)c1OC(C)=O (stereo unspecified)	23	-4	2.6%	-1.9	-10	0.8
CN(Cc1ccccc1Br)C(=O)CN1C(=O)NC2(CCCCCC2)C1=O	1	-3	0.1%	1.7	-4	1.9
CC(=O)c1cccc(NC(=O)C(C)OC(=O)CCCN=C2NS(=O)(=O)c3ccccc32)c1 (stereo unspecified)	-13	2	-2.6%	-3.5	-29	0.3
COc1ccc(-c2cccc3c2NC(=O)C3=O)cc1OC	-1	17	1.7%	-17	-41	0.1
CCOc1ccc(NC(=O)c2c(C)oc3nc(C)nc(N4CCCC4)c23)cc1	nt	-14	2.5%	nt	nt	1.7
CCC(C)c1ccc(OCC(=O)Nc2ccc3c(c2)C(=O)NC3=O)cc1 (stereo unspecified)	-16	5	0.8%	8.3	-1	0.2
CCOC(=O)C1CCCN(C(=O)C2CCN(S(=O)(=O)N3CCC4(CC3)OCCO4)CC2)C1 (stereo unspecified)	5	-1	nt	-0.8	-9	0.4
O=S(=O)(NCCN1CCOCC1)c1ccc(Cl)c(Cl)c1	13	-3	0.5%	-3.0	-7	0.1
O=C(Nc1cccc(C(F)(F)F)c1)c1ccc2snnc2c1	nt	5	0.0%	nt	nt	0.8
CCCC(=O)Nc1ccc(-c2csc(-c3cccnc3)n2)cc1	5	-6	8.5%	-4.4	-8	0.8
O=C(CN1C(=O)NC2(CCCCCCC2)C1=O)NCc1ccc2c(c1)OCO2	1	-13	-1.5%	-1.8	16	4.0
Cn1cccc1Cc1nnc(SCC(=O)N2CCCc3ccccc32)n1-c1ccc(F)cc1	-17	-7	1.5%	-2.9	-1	-0.2
O=C(Nc1cc2ccccc2oc1=O)C1CCCCC1	2	6	1.8%[38.3 µM]	0.0	-2	0.2
Cc1c(Cl)c([N+](=O)[O-])nn1CCCC(=O)NC1CCCCC1	0	-13	-0.5%	-2.2	-19	-0.8
O=C(ON=C1CCN(S(=O)(=O)c2ccccc2)CC1)c1cccc(Cl)c1	3	45	0.2%	-2.6	-10	0.8
CCN(CC(=O)NC1CCS(=O)(=O)C1)C(=O)COc1ccccc1-c1ccccc1 (stereo unspecified)	5	-24	1.9%	-3.5	22	-0.4
COc1ccccc1CNC(=O)Cn1nc(C)c2nn(-c3ccc(Cl)cc3)c(C)c2c1=O	nt	5	0.4%	nt	nt	2.6
Cc1ccc(F)c(S(=O)(=O)NC(=O)C2(C)CCN2C(=O)CC2CCCCC2)c1 (stereo unspecified)	4	nt	0.9%	-1.9	-5	-0.2
CC1CC(C)CN(CCCNC(=O)c2c(O)nc3ccccn3c2=O)C1 (stereo unspecified)	-1	10	5.4%	-4.8	-3	-0.2
CC(=O)c1ccc(NC(=O)C(C)Sc2nnc3ccccn23)cc1 (stereo unspecified)	0	-10	-0.8%	-1.5	-3	-0.2
CCN(c1ccccc1)S(=O)(=O)c1ccc(OC)c(NC(=O)Cn2cnc3c2c(=O)n(C)c(=O)n3C)c1	-3	3	10%	1.5	-3	-0.1

(cont.)
SMILES	Six1-Eya2 inh	TRPML1 blocker	PINK1 modulator	D2 agonist	D2 potentiator	TRPML1 ag
O=C(CSc1nc2ccccc2s1)N/N=C/c1ccc(C(=O)O)cc1	-4	33	-1.1%	-5.7	-37	4.4
CCN1CCN(C(=O)CCc2nc3ccccc3n2-c2ccccc2)CC1	-5	-5	-1.0%	-2.4	-10	0.7
COc1ccc(C(O)Cn2ccsc2=NC(C)=O)cc1 (stereo unspecified)	0	-4	3.6%	2.9	-3	0.0
COC(=O)CCCCCn1c(-c2ccccc2)cn2c3c(=O)n(C)c(=O)n(C)c3nc12	nt	?	-0.2%	nt	nt	-0.8
O=C(Cn1cnc2ccccc2c1=O)Nc1ccc(S(=O)(=O)N2CCOCC2)cc1	5	-3	-0.5%	-3.2	-3	0.7
COc1ccc(N2CCN(CCCNC(=O)C3CCCN(S(=O)(=O)c4c(C)n[nH]c4C)C3)CC2)cc1 (stereo unspecified)	22	-8	0.0%	-1.2	-8	1.0
COc1ccc(CC(=O)N/N=C(\C)c2cccnc2)cc1OC	1	16	0.8%	-1.4	-8	0.6
COc1cccc(N2CCN(C(=O)C3CCCN(S(=O)(=O)c4cnc[nH]4)C3)CC2)c1 (stereo unspecified)	-6	-6	3.0%	-2.2	-4	-0.1
C=CCN(c1ccccc1)S(=O)(=O)c1cccc(C(=O)Nc2nnc(SCC)s2)c1	4	15	0.3%	1.5	5	4.7
Cc1ccc(C)c(NC(=S)NCc2cccs2)c1	16	-2	0.4%	-5.7	-22	0.3
NC(=O)c1ccc(/C=N/O)[n+](Cc2ccccc2)c1	0	nt	0.4%	-2.9	-13	nt
CNC(=O)C[C@@H]1C(=O)N(CCc2ccccc2)CC1(C)C	-11	1	-0.8%	-1.7	0	0.0
Cc1cc(C)nc(N/N=C/c2ccncc2)n1	7	23	2.9%	-2.7	-7	-0.5
Cc1ccc(Cc2c(C)nc3nc(SCC(=O)NC(C)c4ccccc4)nn3c2C)cc1 (stereo unspecified)	nt	24	0.9%	nt	nt	3.6
Nc1c(Cl)cc(Cl)cc1C(=O)OCC(=O)N1CCOCC1	3	36	-0.2%	1.9	-26	3.1
COc1ccc(CCN2C(=O)CC(Cc3ccc(Br)cc3)C2=O)cc1OC (stereo unspecified)	-2	-4	-0.8%	-0.4	-1	-0.3
CC(=O)N1CCOc2ccc(S(=O)(=O)Nc3cccc(C)n3)cc21	1	3	0.2%	9.2	0	0.4
CC(NC(=O)c1ccc(Cl)c(S(=O)(=O)N2CCCCCC2)c1)c1cccnc1 (stereo unspecified)	-3	36	2.0%	2.8	-2	1.7
O=C(C[C@H]1C/C=C\CC[C@H](Cc2ccc(F)cc2)C(=O)OC[C@H]2CCCN2C1=O)N[C@@H](CO)Cc1ccccc1	-2	?	-0.5%	0.2	0	2.5
CCN(c1ccccc1)S(=O)(=O)c1ccc(C(=O)N2CCN(c3ccccc3F)CC2)cc1	-1	-1	-0.6%	-2.5	-14	-0.5

This is a random part of the collection. About 1% of those tested had a hit in this group.
